# PABP FP inh: PABP-poly(A) binding inhibition. PABP-poly(A) RNA binding, fluorescence polarization. inhibition, % at 35 µM. 1% of 290,000 active. AID 2014;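 active means 50% or more with normal probe brightness, or confirmed in later tests; about a fifth of its hits are not listed in these tables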;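 further: calls also rest on retests at 20 µM and on dose response follow-up; controls were probe without protein and protein plus probe with vehicle; some compounds called inactive have numbers as strong as hits; many hits fall short of the cut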
# Target sequence (P11940 whole entry, looked up): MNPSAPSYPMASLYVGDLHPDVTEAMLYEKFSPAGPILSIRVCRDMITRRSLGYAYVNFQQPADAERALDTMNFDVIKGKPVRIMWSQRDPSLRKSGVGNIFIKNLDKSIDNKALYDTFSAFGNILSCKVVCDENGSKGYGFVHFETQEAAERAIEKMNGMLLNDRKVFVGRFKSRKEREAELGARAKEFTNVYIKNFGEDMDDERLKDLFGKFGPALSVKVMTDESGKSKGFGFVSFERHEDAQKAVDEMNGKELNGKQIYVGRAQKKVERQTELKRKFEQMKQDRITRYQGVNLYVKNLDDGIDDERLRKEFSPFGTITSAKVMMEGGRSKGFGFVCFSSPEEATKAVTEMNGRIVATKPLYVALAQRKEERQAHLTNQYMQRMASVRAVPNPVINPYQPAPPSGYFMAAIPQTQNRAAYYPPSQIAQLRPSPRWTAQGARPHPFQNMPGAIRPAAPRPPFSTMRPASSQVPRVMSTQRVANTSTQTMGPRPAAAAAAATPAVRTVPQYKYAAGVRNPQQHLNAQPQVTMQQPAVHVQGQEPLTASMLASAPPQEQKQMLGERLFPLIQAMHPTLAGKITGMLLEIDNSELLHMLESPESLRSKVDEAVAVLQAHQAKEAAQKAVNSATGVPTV
# eIF4H inh: inhibitors of RNA binding by human eIF4H | Q15056 | eIF4H fluorescence polarization binding assay | inhibition, % at 35 µM | 0.94% of 290,000 active | AID 2012;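 active means 50% or more with normal probe brightness, or confirmed in later tests; about a fifth of its hits are not listed in these tables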;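 further: calls also rest on retests at 20 µM and on dose response follow-up; 0% = protein and probe with vehicle and 100% = probe without protein; strong numbers were not always called active; many hits fall short of the cut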
# Rce1 inh: inhibitors of yeast Ras-converting enzyme. AID 2563. 0.27% of 290,000 active. yeast membranes, quenched prenylated peptide cleavage fluorescence. Q03530. calls only;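 active means fall in fluorescence gain of 50% or more versus controls, with final raw signal at or below 3038400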;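 further: plate controls were neutral control wells for no effect and wells lacking membranes for full effect; tested at 10 µM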
# Target sequence (Q03530 whole entry, looked up): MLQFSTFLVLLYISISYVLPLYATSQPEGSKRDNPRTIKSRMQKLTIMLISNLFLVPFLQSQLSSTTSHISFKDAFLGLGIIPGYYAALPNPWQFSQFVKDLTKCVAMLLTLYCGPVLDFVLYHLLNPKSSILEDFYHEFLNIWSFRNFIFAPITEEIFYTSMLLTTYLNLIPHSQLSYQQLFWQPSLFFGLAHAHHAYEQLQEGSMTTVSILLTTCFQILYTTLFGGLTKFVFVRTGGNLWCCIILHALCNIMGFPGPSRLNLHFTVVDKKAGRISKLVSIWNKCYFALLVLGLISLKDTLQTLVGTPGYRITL
# CSC inhib: cancer stem cell inhibition. cancer stem cell-like cells viability, luminescence. inhibition, % at 7.5 µM. 1.1% of 300,000 active. AID 2717;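 active means mean at 75% or more and at least half the replicates too; tested in HMLE shEcad cells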;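 further: 0% = median of negative and 100% = median of positive control wells; the first replicate is given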
# Env fusion inh: HIV envelope-mediated fusion inhibition; inhibition, % at 12.3 µM; HeLa-JRFL Env/CEM21 cell fusion, luciferase; 1.1% of 360,000 active;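 active means mean replicate inhibition score of at least 50 and every replicate individually at or above 50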;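 further: 0% = plate neutral controls and 100% = maraviroc near 300 nM; one replicate is shown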
# Yeast UUG start: yeast start codon fidelity modulation. S. cerevisiae UUG-firefly luciferase reporter, luminescence/redox ratio. 0.13% of 350,000 active. activity score, % at 18.7 µM;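 active means replicate mean at a twofold rise or more, about +100% in these data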;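 further: firefly luciferase made from a UUG start codon reports start codon fidelity; reporter light over untreated wells divided by growth signal over untreated wells; some hits fall short of that in this replicate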
# MT1-MMP act inh: blocks activation of human MT1-MMP; P50281; HT1080 RFP-PRO-GFP cells, GFP/RFP ratio fluorescence, overnight; percent of plate control window, DMSO zero; GFP/RFP ratio change, % at 20 µM; 0.061% of 360,000 active; AID 651647;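 active means GFP/RFP ratio change of at least 30% with cell ATP level not reduced by more than half and red fluorescence within 50% of control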; further: strong numbers were not always called active
#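 Test system: HT1080 cells expressing an RFP-PRO-GFP fluorescent reporter construct / Compound dosing: single-point 20 µM compound, 1% DMSO / Schedule: cells overnight before dosing, compound overnight, 37 °C, 5% CO2 / Evaluation: GFP/RFP fluorescence ratio / Control set: DMSO and RFP-L50D-GFP cell wells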
# MT1-MMP act inh RFP: also measured in MT1-MMP act inh; calls as there; RFP signal change, %; measured here: RFP expression control read;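 0 = vehicle wells; hits needed this value within 50% of zero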
# * hit, by the source's call; i = inactive; . = not tested or not shown; & = joins results of further samples. An excerpt; count on the stated rates, not on these rows.
SMILES,PABP FP inh,eIF4H inh,Rce1 inh,CSC inhib,Env fusion inh,Yeast UUG start,MT1-MMP act inh,MT1-MMP act inh RFP
Cc1cccc(NC(=O)CCN2C(=O)c3cccc([N+](=O)[O-])c3C2=O)c1,5,-7,i,-4,-5,1,0,0
C[C@H](NC(=O)C1CCN(S(=O)(=O)c2ccccc2)CC1)C(=O)NCc1ccc(Cl)cc1Cl,-9,-2,i,-4,9,0,4,-9
COc1ccc(N(CC(=O)N2CCCCCC2)S(=O)(=O)c2ccc(OC)c(OC)c2)cc1,6,-13,i,-11,6,3,0,4
ClCC1=Nc2ccccc2Cc2ccccc21,.,.,i,-12,18,-7,2,0
CCCCOc1ccc(S(=O)(=O)NNC(=O)C2Cc3c(ccc4ccccc34)O2)cc1 (stereo not drawn),-9,-20,i,.,2,-10,2,2
Cc1ccnn1CCC(=O)N1CCCC(Nc2ccc(F)c(F)c2)C1 (stereo not drawn),22,-15,i,.,28,-3,1,-5
COc1cccc(/C=N/Nc2snc(SC)c2C#N)c1,9,1,.,4,.,.,1,-2
COCc1c(C(=O)Nc2nnc(C3CC3)s2)oc2ccccc12,.,.,.,.,-31,-4,8,3
COc1ccc(-c2noc(-c3ccccc3C(=O)NCC3CCCO3)n2)cc1 (stereo not drawn),0,-7,i,1,-8,.,2,-3
COc1cccc(C(O)c2nc(-c3cnn(C)c3)cs2)c1 (stereo not drawn),.,.,.,.,6,-14,2,-5
O=C(/C=C/c1ccccc1)Nc1ccc(NC(=O)c2cccs2)cc1,-2,-2,i,9,12,-21,2,-1
CCOC(=O)N1CCC(n2c(SCC(=O)Nc3ccccc3OC)nc3ccccc3c2=O)CC1,-8,2,i,2,38,-7,-15,-10
CN(C)C(=O)c1ccc(-c2nnc(NCc3ccccc3)c3ccccc23)cc1,5,0,i,-4,11,.,0,-2
CCn1c(=O)c2sccc2n(Cc2ccccc2)c1=O,-1,-2,i,-10,.,0,-1,0
Fc1ccccc1OCCSc1nc2ccccc2o1,-1,-4,i,-9,.,-2,-4,1
CCn1ncc(CN2CCC(Oc3ccc(C(=O)N4CCCC4)cc3)CC2)c1C,4,8,i,-11,-2,-6,1,0
C[C@H]1COC(=O)CCCC/C=C\C[C@H](CC(=O)N(CCO)Cc2ccccc2)C(=O)N1,.,.,.,-10,-2,-15,-3,-1
CCC1Oc2ccccc2N(CC(=O)Nc2ccc3c(c2)OCCO3)C1=O (stereo not drawn),-5,2,i,-5,-52,-17,-1,1
COc1ccc(C(=O)NNC(=O)C23CC4CC(CC(C4)C2)C3)cc1OC,.,.,.,-9,2,-16,1,3
CC1CC(C)CN(CC(=O)N2CCOCC2)C1 (stereo not drawn),-8,12,i,-1,-12,.,-1,7
CCOC(=O)c1c(C)n(-c2ccccc2)c2ccc(O)cc12,-2,-2,i,-4,12,-11,-6,-21
O=C(CCSCc1ccccc1Cl)NC1CCCC1,-2,-13,i,-4,11,-6,9,2
Cn1c(N)c(N2CCN(c3ccccc3)CC2)c(=O)[nH]c1=O,0,-1,i,-2,-8,-20,6,0
Cc1c(C(=O)OCc2nc3scc(-c4ccccc4)c3c(=O)[nH]2)cccc1[N+](=O)[O-],12,6,i,.,-47,.,-1,-16
Cc1ccc(SCCC(=O)OCn2nnc3ccccc3c2=O)cc1,7,-4,i,-13,1,.,3,1

# The list continues.
SMILES,PABP FP inh,eIF4H inh,Rce1 inh,CSC inhib,Env fusion inh,Yeast UUG start,MT1-MMP act inh,MT1-MMP act inh RFP
O=C(CCCN1C(=O)c2ccccc2C1=O)NCc1cccnc1,-4,2,i,-7,-36,0,3,10
COCCNC(=O)C1(C)CCN(C(=O)C2(c3ccc(Cl)cc3)CCCC2)C1 (stereo not drawn),.,.,.,.,-3,2,0,2
COc1ccc2c(c1)CCc1c(C(=O)NCc3cccnc3)noc1-2,5,4,i,-7,.,-12,5,-5
Nc1ccc(S(=O)(=O)O)cn1,-1&2,2&3,i,-21&3&-5,-2&6&2,-15&-10,-2&-1&2,3&-3&1
COC(=O)C1=C(C(=O)OC)[C@@H]2N(C)c3ccccc3[C@@]23C[C@@H](C(=O)OC)N=C3N1,6,1,i,-1,2,0,-1,2
CCOc1ccc(-n2c(SCC(N)=O)nc3c([nH]c4ccccc43)c2=O)cc1,-5,5,i,.,-34,-3,1,-9
CCCc1ccc(C(=O)NNC(=O)c2ccc(Br)cc2)cc1,3,-2,i,-20,-7,-2,-3,-5
O=C(CCC1CCCC1)NCCS(=O)(=O)N1CCN(c2ccccc2)CC1,.,.,i,-1,24,-26,3,-5
COc1ccc(C(CCN2CCCC2)c2c(OC)cc(OC)c3c(-c4ccccc4)cc(=O)oc23)cc1 (stereo not drawn),-24,-2,i,3,-32,-5,3,-1
CCN(CC)CC(=O)Nc1scc2c1c(=O)oc1ccccc12,-1,11,i,20,-32,-15,5,3
Cc1ccccc1NC(=O)C1CCCN(C(=O)NCc2ccccc2)C1 (stereo not drawn),3,-6,i,-2,9,-4,1,-2
Cc1nn(C)c(Cl)c1C(=O)NC(C(=O)O)c1ccccc1 (stereo not drawn),7,-4,i,-15,-10,-11,1,4
CCCCNc1c([N+](=O)[O-])cc(C(=O)O)cc1[N+](=O)[O-],1,3,i,15,.,-9,4,12
O=C(O)[C@H](Cc1ccccc1)NC(=O)N1CCOCC1,0,-2,i,-3,.,6,-1,4
COc1ccc(NC(=O)c2cc(S(=O)(=O)N3CCCCC3)c[nH]2)cc1,-5,0,i,-5,5,7,3,-1
Nc1cc(=O)[nH]c(=O)n1CCCc1ccccc1,.,.,i,-7,-3,-16,0,4
CCOC(=O)Cc1nnc(NC(=O)C(CC)Sc2nncn2C)s1 (stereo not drawn),1,-7,i,9,20,-22,-1,3
COc1ccc(/C=N/NC(=O)Nc2cccc3nsnc23)cc1,3,6,i,21,-1,0,2,0
CCOc1ccc(S(=O)(=O)Nc2ccc(C(=O)NCC(c3ccccc3)N(C)C)cc2)cc1 (stereo not drawn),-9,-13,i,-5,-9,5,-1,-4
C=CCC[C@@H](Cc1ccc(F)cc1)C(=O)OCCNC(=O)[C@@H](CC=C)CC(=O)N[C@@H](CO)Cc1ccccc1,.,.,.,-9,4,-7,1,-5
COc1ccc(CCNC(=O)Cn2c(=O)n(-c3ccc(C)c(F)c3)c(=O)c3sccc32)cc1OC,6,-6,i,-10,-51,-2,-2,-1
C=C(C)CSc1nnc([C@@H]2CCCN2)o1,1,4,i,-4,-17,.,0,0
Cc1cc2nn(-c3ccc(F)cc3)nc2cc1N,12,-10,i,6,-129,-11,-3,-1
CC(C)=CCN1CCN(Cc2cccc3c2OCO3)CC1CCO (stereo not drawn),0,-8,i,8,28,.,2,3
CS(=O)(=O)c1ccc(Sc2nc3ccccc3s2)c([N+](=O)[O-])c1,-13,-2,i,.,.,-10,0,-2

# A stretch from further up, for reference:
SMILES,PABP FP inh,eIF4H inh,Rce1 inh,CSC inhib,Env fusion inh,Yeast UUG start,MT1-MMP act inh,MT1-MMP act inh RFP
O=C(CCCN1C(=O)c2ccccc2C1=O)NCc1cccnc1,-4,2,i,-7,-36,0,3,10
COCCNC(=O)C1(C)CCN(C(=O)C2(c3ccc(Cl)cc3)CCCC2)C1 (stereo not drawn),.,.,.,.,-3,2,0,2

# Copied from the list:
# Value for O=C(CCC1CCCC1)NCCS(=O)(=O)N1CCN(c2ccccc2)CC1 under CSC inhib: -1
# Value for Nc1ccc(S(=O)(=O)O)cn1 under Env fusion inh: -2&6&2
# Value for CC(C)=CCN1CCN(Cc2cccc3c2OCO3)CC1CCO (stereo not drawn) under PABP FP inh: 0
# Value for COC(=O)C1=C(C(=O)OC)[C@@H]2N(C)c3ccccc3[C@@]23C[C@@H](C(=O)OC)N=C3N1 under eIF4H inh: 1
# Value for Cc1ccccc1NC(=O)C1CCCN(C(=O)NCc2ccccc2)C1 (stereo not drawn) under Env fusion inh: 9
# Value for CCN(CC)CC(=O)Nc1scc2c1c(=O)oc1ccccc12 under eIF4H inh: 11

# Continued.
SMILES,PABP FP inh,eIF4H inh,Rce1 inh,CSC inhib,Env fusion inh,Yeast UUG start,MT1-MMP act inh,MT1-MMP act inh RFP
CC(CN1CCN(C)CC1)OC(=O)c1ccccc1Cl (stereo not drawn),17,-6,i,0,.,-12,-4,0
CCCCN(C(=O)c1cc(Cl)nc2ccccc12)c1c(N)n(Cc2ccccc2)c(=O)[nH]c1=O,.,.,i,-15,34,14,0,-2
CS(=O)(=O)N1CCN(C2CCN(Cc3ccccc3)CC2)CC1,2,-4,i,-4,.,-21,-2,1
CC(C)C(NC(=O)c1ccc(Cl)cc1)C(=O)NCC1CCCO1 (stereo not drawn),1,5,i,2,0,-23,0,2
C/C(=N\N=C1\NC(=O)CC(C(=O)O)S1)c1ccc(F)cc1 (stereo not drawn),-15,-12,i,8,3,-14,-3,3
CCOC(=S)SCC(=O)Nc1nc(-c2ccc(Br)cc2)cs1,-4,-6,i,85*,-106,.,-27,-25
Cc1sc2c(c1C)C(=O)/C(=C\Nc1ccncc1)S(=O)(=O)N2C,20,16,i,-5,18,-16,6,4
COc1ccc(N(CC(=O)N2CCOCC2)S(=O)(=O)c2ccccc2)cc1Cl,12,-4,i,-10,-1,-21,-2,3
CCOC(=O)Nc1cccc(Nc2ccccc2)c1,15,8,i,-8,-27,-3,7,1
O=C(CCC(=O)N1CCN(C(=O)c2ccco2)CC1)c1ccc(F)cc1,11,-9,i,-9,-2,.,-1,3
CCOC(=O)C1CCN(S(=O)(=O)c2ccc(NC(=O)OC)cc2)CC1,-10,-7,i,-1,.,10,3,-3
CCOC1=C2CN(S(=O)(=O)c3ccc(C)cc3)[C@H](c3ccccc3)C[C@@H]2N(S(=O)(=O)c2ccc(Br)cc2)[C@H](c2ccccc2)C1,.,.,.,.,51,-14,13,-27
O=C(Cn1c(NCCO)nc2ccccc21)c1ccc([N+](=O)[O-])cc1,-2,-7,i,14,14,14,1,1
COc1ccc([C@H]2CC(=O)C=C(c3cccc(Br)c3)C2)cc1OC,.,.,.,49,10,-12,-5,-10
O=C1CCC(=O)N1c1ccc(S(=O)(=O)Nc2cccc(Br)c2)cc1,6,-6,i,-21,-15,1,2,1
COc1cccc(CN(C(=O)c2cccs2)C2CCS(=O)(=O)C2)c1 (stereo not drawn),4,-1,i,11,9,-9,-1,-1
O=C(Nc1ccc2ccccc2c1)NC1CCS(=O)(=O)C1 (stereo not drawn),5,3,i,.,2,.,-1,2
COc1ccc(OC)c(C(O)c2nc3ccccc3n2C(C)C)c1 (stereo not drawn),0,-4,i,-9,-78,-16,2,2
OC(CNCC1CCCO1)Cn1c2ccccc2c2ccccc21 (stereo not drawn),-2,0,i,-1,.,-7,1,1
CCCn1c(SCc2ccc(Cl)cc2)nc2c1c(=O)[nH]c(=O)n2C,2,-1,i,3,.,-5,-1,-5
CC(=O)Nc1cccc(Cn2cccn2)c1,-3,-12,i,.,.,.,.,.
CS(=O)(=O)C1=NN2C(=N)/C(=C\c3ccc(OC(=O)c4ccco4)cc3)C(=O)N=C2S1,9,-10,i,-8,9,-9,-4,6
O=C1CC(N(O)c2ccccc2)C(=O)N1Cc1ccccc1 (stereo not drawn),-7,-3,i,3,-56,-20,-1,1
CCOc1ccc(S(=O)(=O)NCC(c2ccc3c(c2)OCO3)N2CCN(C)CC2)cc1 (stereo not drawn),.,.,i,.,.,-17,-1,3
COc1cc(C)nc(N(Cc2ccccc2)S(=O)(=O)c2ccccc2)n1,0,-1,i,48,.,.,-1,-8
COc1ccc(NC(=O)CSc2nncn2N)c(OC)c1,1,-7,i,5,-13,-30,1,4
CCOC(=O)CCNC(=O)N1CCCC(CCC(=O)N(C)CCc2ccccn2)C1 (stereo not drawn),1,6,i,-22,-38,.,-3,2
O=C(O)CCn1[nH]c(=O)c2ccccc2c1=O,2,6,i,.,.,.,0,2
Cc1cc(NC(=O)C(C)SCC(=O)OCC(=O)N(Cc2ccccc2)C(C)(C)C)no1 (stereo not drawn),2,-14,i,-8,.,-18,3,-3
CC1(C(=O)NS(=O)(=O)c2ccc(Cl)s2)CCN1C(=O)C1(c2ccccc2)CCCC1 (stereo not drawn),.,.,.,.,-24,16,-10,3
